Screening results as filed in PubChem.
SARS PLP yeast – inhibitors of SARS-CoV papain-like protease in yeast; S. cerevisiae expressing SARS-CoV PLpro, growth rescue; control for the full effect not named in the record; Potency, µM (top dose mostly 32.9 µM), inactives show at the top dose activity, positive = growth rescue; 330,000 compounds, 0.19% hits; active means well fitted rising curve with a large enough effect; inconclusive means small, poorly fitted or top-dose-only effect; inactive means no such curve, though single readings can be large or run the other way; note: 0% is about no effect; nearly all actives have a fitted effect of over 55% in size; growth read by luminescence after 48 h
Cruzain Triton – inhibitors of Trypanosoma cruzi cruzain with detergent; P25779; purified cruzain, Z-FR-AMC fluorescence, 0.01% Triton; Potency, µM, without a hit: max response, negative = inhibition, most hits filed as inhibitors; 200,000 compounds, 0.43% hits; AID 1478;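 note: plate controls were neutral wells for no effect and buffer without enzyme for full effect; nearly all actives have a fitted effect of over 40% in size; top concentration of the series not given in the record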
Target sequence (P25779 123-467 limits assumed): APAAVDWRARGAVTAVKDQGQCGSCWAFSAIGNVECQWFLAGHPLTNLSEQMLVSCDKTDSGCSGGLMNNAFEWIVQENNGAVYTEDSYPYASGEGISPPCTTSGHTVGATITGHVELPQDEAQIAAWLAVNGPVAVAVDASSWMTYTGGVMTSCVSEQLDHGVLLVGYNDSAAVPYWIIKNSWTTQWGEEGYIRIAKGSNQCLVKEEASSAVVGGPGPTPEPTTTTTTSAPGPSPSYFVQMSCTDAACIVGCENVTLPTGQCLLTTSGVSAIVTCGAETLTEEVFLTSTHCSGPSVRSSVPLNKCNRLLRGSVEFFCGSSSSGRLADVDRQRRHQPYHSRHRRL
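Detergent-containing run (0.01% Triton X-100) in acetate buffer pH 5.5 with 5 mM DTT: enzyme at 1.5 nM final, 15 min compound preincubation at room temperature, then 2 uM Z-FR-AMC substrate. Activity taken as 60 s fluorescence increase at 360/450 nm.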
RE007 growth inh – less growth of the S. pombe RE007 Vpr strain; S. pombe RE007 Vpr strain, BacTiter-Glo ATP luminescence, 24 h; control for the full effect not named in the record; Potency, µM (titrated, usually from 92.2 µM), inactives show top-dose activity change, negative = less growth; 360,000 compounds, 0.21% hits; AID 651644; active = well fitted falling curve with a large enough effect; inconclusive = small, poorly fitted or top-dose-only effect; inactive = no such curve, though single readings can be large or run the other way;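 note: % is set by controls: 0 for no effect and ±100 for the full control effect; nearly all actives have a fitted effect of over 50% in size; the assay follows cell death caused by Vpr and the record does not say whether a fall means rescue or toxicity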
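Fission yeast strain RE007, carrying one chromosomally integrated HIV-1 vpr copy, was seeded at OD 0.01 in PMG+AL medium with 23 nL pinned compound. After 24 h at 30 °C and 99% humidity, viability was read by BacTiter-Glo luminescence.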
Cruzain noTriton – cruzain (T. cruzi) inhibition without detergent; P25779; purified cruzain, Z-FR-AMC fluorescence, no detergent; Potency, µM, for the others: max response, negative = inhibition, hits mostly inhibitors; 200,000 compounds, 2.3% hits; AID 1476;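 note: plate controls were enzyme without inhibitor for no effect and buffer without enzyme for full effect; nearly all actives have a fitted effect of over 40% in size; top concentration of the series not given in the record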
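Purified cruzain at 1.5 nM, pre-incubated 15 min with compound at room temperature in 100 mM sodium acetate pH 5.5, 5 mM DTT, 0.00005% Triton X-100. Reaction started with 2 uM Z-FR-AMC; AMC fluorescence increase over 60 s gives rate.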
Marburg entry inh – blocks Marburg virus binding to or entry into cells | 300,000 compounds, 1.8% hits | Potency, µM (doses to about 37.8 µM), inactives show at the top dose activity change, negative = inhibition, hits mostly inhibitors | Marburg virus pseudotyped entry inhibition, cell reporter; control for the full effect not named in the record; about a third of the inactives were read at about 46 µM | AID 540276; active = well fitted inhibition curve with a large enough effect; inconclusive = small, poorly fitted or top-dose-only effect, or effect the other way; inactive = flat fitted curve, though single readings scatter; tested in HEK293 cells; about a fifth of its hits are not listed in these tables; note: % is set by controls: 0 for no effect and ±100 for the full control effect; luciferase read-out
LASV entry inh – inhibitors of Lassa virus binding or cell entry; Lassa virus pseudotype entry inhibition, cell reporter; control for the full effect not named in the record; Potency, µM (doses to about 37.9 µM), for the others: at the highest dose activity change, negative = inhibition, usual class: inhibitors; 300,000 compounds, 1.2% hits; AID 540256; active means well fitted inhibition curve with a large enough effect; inconclusive means small, poorly fitted or top-dose-only effect, or effect the other way; inactive means flat fitted curve, though single readings scatter; tested in HEK293 cells; note: % is set by controls: 0 for no effect and ±100 for the full control effect; nearly all actives have a fitted effect of over 50% in size; luciferase read-out
2A StopGo – lowers the luciferase signal of an FMDV 2A StopGo reporter; Potency, µM (highest dose often 57.9 µM), for the others: at the top dose signal change, negative = less light; human cells with a luciferase reporter of 2A StopGo recoding; control for the full effect not named in the record; AID 1159524; 410,000 compounds, 1.2% hits; active = well fitted falling curve with a large enough effect; inconclusive = small, poorly fitted or top-dose-only effect; inactive = no such curve, though single readings can be large or run the other way; tested in HEK293T cells; note: % is set by controls: 0 for no effect and ±100 for the full control effect; nearly all actives have a fitted effect of over 45% in size; luciferase light after 4 h
NS1 function inh – influenza NS1 inhibition; S. cerevisiae slowed by influenza A NS1, growth recovery by OD600; 270,000 compounds, 0.4% hits; Potency, µM (highest dose often 46.1 µM), for inactives: at the top dose activity, positive = more growth; AID 2326; active means well fitted rising curve with a large enough effect; inconclusive means small, poorly fitted or top-dose-only effect; inactive means no such curve, though single readings can be large or run the other way; note: nearly all actives have a fitted effect of over 50% in size
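Read-out: OD600 growth recovery of NS1-expressing budding yeast. Cells grown overnight at 30C in -URA glucose medium, washed, resuspended and diluted 1:100 in 2% galactose assay medium, pH 6.0. Same strain lacking NS1 served as positive control.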
* = called active by the depositor; u = inconclusive; x = not tested or not shown; & = joins results of further samples; [ ] = dose if it differs, or a comment. Unless noted, calls come from the whole dose curve; as a rule, active = well fitted curve in the direction sought with a large enough effect; inconclusive = small, poorly fitted or top-dose-only effect, or another doubt; inactive = no such curve, though single readings can be large; an effect the other way counts as inactive or inconclusive. Potency is the fitted concentration of half-maximal effect.

The line under a structure holds: SARS PLP yeast | Cruzain Triton | NS1 function inh | 2A StopGo | Marburg entry inh | Cruzain noTriton | LASV entry inh | RE007 growth inh
CCCOC(=O)CCn1c(=S)oc2ccccc21
→ 10% | -2.0% | -47% | 9% | 26%[46.1 µM] | 0% | u | 7%
CC1CCCC12NC(=O)NC2=O (stereo not given)
→ x | x | x | -18% | 11% | x | 1%[46.1 µM] | -15%
CCOC(=O)CNC(=O)c1ccc2c(c1)OCCO2
→ -4% | 8.3% | 3% | -10% | 23% | -4% | 0% | 6%
COc1ccc(OC)c(S(=O)(=O)N2Cc3ccccc3CC2C(=O)Nc2ccc(C)cc2C)c1 (stereo not given)
→ x | -5.5% | x | 31%[activator] | u | -5% | -25%[46.1 µM] | x
C/C(=N\NC(=O)CNC(=O)C1COc2ccccc2O1)c1ccc(Cl)cc1 (stereo not given)
→ 0% | x | -4% | 6% | -8% | x | 1% | 3%
COc1ccc(-n2cnnc2SCC(=O)Nc2cccnc2Cl)cc1
→ 0% | x | -2% | -10% | u | x | -1% | 5%
C#CCOCCOCCOCCNc1nc(N2CCN(C(=O)C(Cc3cc4ccccc4[nH]3)n3cc(C(N)Cc4ccc(O)cc4)nn3)CC2)nc(N2CCN(C(=O)C(Cc3cc4ccccc4[nH]3)n3cc(C(N)Cc4ccc(O)cc4)nn3)CC2)n1 (stereo not given)
→ -2% | x | 16% | -12% | x | x | x | 34%
COc1ccc(-n2ccnc(SCC(=O)NC3CCCC3)c2=O)cc1OC
→ 4% | x | x | -7% | -1% | x | 1% | 7%
FC(F)(F)c1cccc(Cc2noc(CN3CCCC(OCc4ccccn4)C3)n2)c1 (stereo not given)
→ 0% | x | -7% | u | 17% | x | 0% | 8%
CCOc1ccc(NC(=O)COn2nnc3ccc(S(=O)(=O)N4CCOCC4)cc32)cc1
→ -1% | x | x | -23% | 1%[46.1 µM] | x | u | -3%
CCCn1c(=O)[nH]c2ccccc21
→ 3% | 2.5% | 1% | -19% | 1% | 1% | -4% | 2%
CCCCOc1ccc(-c2nonc2NC(=O)c2ccco2)cc1
→ x | -6.6% | x | -12% | x | 2% | 13%[46.1 µM] | x
Cn1c(SCc2nc3ccccc3c(=O)[nH]2)nnc1-c1ccco1
→ 6% | 1.4% | 5% | x | -12% | -3% | -5% | -3%
CN(c1ccccc1)S(=O)(=O)c1cccc(NC(=O)CSc2nccc(=O)[nH]2)c1
→ -4% | x | x | -1% | -27% | x | 21% | -15%
O=C(NNC(=O)c1ccc2ccccc2c1)c1ccc(Cl)cc1
→ x | x | x | -2% | 1%[46.1 µM] | x | 6%[46.1 µM] | -19%
CCN(CC)c1ccc(/C=C2/C(=O)N(c3ccc([N+](=O)[O-])cc3)N=C2N2CCOCC2)cc1
→ 1% | 1.7% | 20% | x | x | -12% | x | x
CCCOc1ccc(N2C(=O)CC(N(O)c3ccccc3)C2=O)cc1 (stereo not given)
→ -1% | 2.6% | 14% | 19% | -2% | u | 3% | 0%
COc1ccc(S(=O)(=O)NCC(c2ccc(N(C)C)cc2)N2CCCC2)cc1F (stereo not given)
→ x | 0.6% | x | -4% | x | 6% | u | x
CC1CCCCN1C(=O)CSc1nnc2ccccn12 (stereo not given)
→ 1% | x | x | 29% | u | x | -6% | 14%
COc1cccc(-n2nnc3c(=O)n(Cc4ccc(F)cc4)cnc32)c1
→ 1% | 1.6% | -3% | 21% | 1% | -5% | u | 5%
Cc1cc(N2CCCC2)ccc1NC(=O)COc1ccccc1
→ 6% | x | x | 5% | -21%[46.1 µM] | x | -2% | 16%
O=C(CN(C(=O)c1csnn1)c1ccc(F)c(Cl)c1)NCc1ccc2c(c1)OCO2
→ 10% | x | 9% | 41%[activator] | -7%[46.1 µM] | x | -2% | -22%
CCCn1cnc2cc(NCc3cccc(OC)c3)ccc21
→ -9% | -1.3% | -14% | 1% | 2% | -6% | -6% | -7%
CCc1cc2c(SC(C)C(=O)NC3CCCC3)ncnc2s1 (stereo not given)
→ -10% | x | x | u | -18% | x | u | 8%
O=C(O)C(c1ccccc1)C1CCCCC1O (stereo not given)
→ x | x | x | -2% | -2%[46.1 µM] | x | 9%[46.1 µM] | 21%
COCC(C)n1c(C)cc(C(=O)COc2ccc(S(=O)(=O)N3CCOCC3)cc2Cl)c1C (stereo not given)
→ 0% | -1.3% | 13% | u | u | u | u | -1%
O=C(COC(=O)c1ccc(Cl)nc1)Nc1nnc(-c2ccccc2)o1
→ 1% | x | x | -2% | 9% | x | -8% | 12%
Cc1nn(Cc2ccccc2Cl)c(C)c1NC(=O)CCCn1nc(C)c([N+](=O)[O-])c1C
→ 1% | 1.6% | 5% | x | -5% | u | -3% | -11%
Cc1ccccc1NC(=O)Cn1nc(C(F)(F)F)cc1C1CC1
→ 0% | 4.7% | -4% | 5% | 0% | -7% | -29%[14.3 µM] | 19%
Cc1cc2c(=O)oc(-c3ccc(Br)cc3)nc2s1
→ -1% | x | 1% | 11% | 7%[46.1 µM] | x | 7% | 5%
CC1(C(=O)Nc2nc3ccccc3s2)CC1(Br)Br (stereo not given)
→ -2% | x | -4% | 25% | x | x | x | -9%
COc1ccc(CN2CCNC(=O)C2CC(=O)NCC2CCOCC2)c(F)c1 (stereo not given)
→ -4% | x | 0% | -20% | 13% | x | 2% | 4%
Cc1c(O)cc2c(c1O)C(=O)CC(c1ccc(O)cc1)O2 (stereo not given)
→ 0% | x | 0% | -17% | x | x | x | 20%
COc1cc(-c2cc(C(=O)Nc3ccc(S(N)(=O)=O)cc3)c3ccccc3n2)cc(OC)c1OC
→ 4% | x | 2% | -14% | -40%[46.1 µM] | x | u | 12%
CC(C)(C)OC(=O)CC[C@@H](C(=O)N1CCN(C(=O)OC(C)(C)C)CC1)n1cc(C(Cc2ccc(O)cc2)NC(=O)OC(C)(C)C)nn1 (stereo not given in full)
→ 0% | x | -2% | u | x | x | x | 5%
CCCn1c(SCC(=O)NCc2ccc(C)cc2)n[nH]c1=O
→ -1% | x | x | -1% | 16%[46.1 µM] | x | 22%[46.1 µM] | 11%
C=CCNC(=S)N1CCN(c2ncc3c(=O)c(C(=O)O)cn(CC)c3n2)CC1
→ -3% | -4.3% | 1% | 14% | 15% | -9% | 3% | -6%
COc1ccc(NC(=O)COC(=O)C23CCC(=O)N2c2ccccc2S3)cc1 (stereo not given)
→ -4% | -5.1% | 6% | 93%[activator] | 21% | -9% | 18% | 13%
CC(Oc1ccc(Br)cc1)C(=O)Nc1ccc(S(=O)(=O)NC2=NCCCCC2)cc1 (stereo not given)
→ x | x | x | 1% | u | x | u | -12%
Cc1cc(C)nc(SCC(=O)OCC(=O)Nc2ccccc2)n1
→ 1% | x | 5% | 15% | -3%[46.1 µM] | x | 4%[46.1 µM] | 23%
Cc1ccc(S(=O)(=O)N2CCN(C(=O)c3n[nH]c(=O)c4ccccc34)CC2)cc1
→ 0% | x | 9% | -1% | x | x | x | 14%
Cc1cc(C)cc(S(=O)(=O)c2cn(C)c3cc(N4CCN(C)CC4)c(F)cc3c2=O)c1
→ -2% | x | -6% | 7% | x | x | x | -7%
C/C(=N\NC(=O)CSc1nc2ccccc2s1)c1cccnc1
→ -1% | x | -1% | -28% | -21% | x | u | 6%
COCCCN1CC23C=CC(O2)C(C(=O)OC)C3C1=O (stereo not given)
→ x | x | 4% | 11% | 9% | x | u | 1%
COc1ccccc1NS(=O)(=O)c1cc(NC(=O)CCNC(C)=O)ccc1N1CCCCC1
→ 2% | x | x | 12% | -9%[46.1 µM] | x | u | 3%
O=C(CNc1cccc(F)c1)N1CCc2ccccc2C1
→ -3% | x | -34% | 27% | x | x | x | -3%
CCCNC(=O)COC(=O)c1cc(SC)ccc1Cl
→ 5% | -1.0% | 8% | 18% | -5%[46.1 µM] | -1% | 1% | -1%
Cn1c(CNC(=O)CNC(=O)c2cccc(F)c2)cc(=O)n(C)c1=O
→ 7% | x | 2% | -4% | x | x | x | 0%
O=C1c2ccccc2-c2nnc(-c3ccccc3)cc21
→ -6% | 0.8% | -32% | -18% | u | 6% | u | u
O=C(CCS(=O)(=O)c1cccc2nonc12)Nc1cccc(F)c1
→ x | -1.2% | x | -13% | 0%[46.1 µM] | 1% | -8%[46.1 µM] | x
CCC1(c2ccc(F)cc2)NC(=O)N(CC(=O)NCc2ccc(F)cc2)C1=O (stereo not given)
→ 1% | x | 9% | -23% | x | x | x | -2%
O=c1sc2ccccc2c(=O)n1Cc1ccccc1F
→ 4% | x | x | 4% | -3%&-3%[46.1 µM] | x | -24%[46.1 µM] | -5%
CCC(=O)Nc1ccc(Cl)c(-c2nc3ncccc3o2)c1
→ 1% | x | -11% | -17% | 12% | x | -14% | -3%
COC(=O)c1ccc(S(=O)(=O)N(Cc2cc3cc4c(cc3[nH]c2=O)OCO4)C2CCCCC2)cc1
→ 17% | 1.5% | 13% | x | 0% | 3% | x | x
CCOc1ccc(Nc2oc(/C=C/c3cc(OC)c(OC)c(OC)c3)nc2C#N)cc1
→ x | -2.8% | x | -24% | 18%[46.1 µM] | 12% | -10%[46.1 µM] | x
CCC(C(=O)OC(C)C(=O)Nc1ccc(Cl)cn1)c1ccccc1 (stereo not given)
→ -2% | x | -11% | -27% | x | x | x | 18%
CCN(CC)c1ccc(/C=N/N2C(=O)c3ccccc3C2=O)cc1
→ 23% | -8.3% | -15% | 11% | 2% | 7% | 0% | -1%
CCN(C(=O)CSc1nnc(-c2ccccc2Br)o1)C1CCS(=O)(=O)C1 (stereo not given)
→ -5% | x | x | 5% | 3%[46.1 µM] | x | -17% | 2%
Cc1ccc(C(=O)NCC(=O)NCCc2ccc(S(N)(=O)=O)cc2)s1
→ 1% | x | 0% | 3% | x | x | x | -5%
COc1cccc(NC(=O)CN(C)C(=O)COc2ccccc2Cc2ccccc2)c1
→ -8% | x | x | u | -31% | x | -5% | -16%
CN(C)CCSc1nc(O)c(-c2ccccc2)c(=O)n1-c1ccccc1
→ 5% | x | -1% | -10% | 1% | x | 1% | -4%
